Source: PubChem
D2 ag = Beta-Arrestin HTS for Positive Allosteric Modulators of the Human D2 Dopamine Receptor: Agonists | DiscoveRx PathHunter D2 beta-arrestin, luminescence, 90 min; 100% = 57 uM dopamine signal | activation, % (concentration not given with the values) | 360,000 compounds, 0.084% hits; in the data active = activation above about 40%; inconclusive = about 15% to 40%; inactive = below about 15%; note: the text of the record calls up to 30% inactive
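Agonist mode: compounds alone added to overnight-plated D2 PathHunter cells for 90 min at 37 C, with 57 uM final dopamine (EC100) defining full response. Beta-arrestin recruitment detected by chemiluminescent reagent, read after 1 h at ambient temperature.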
D2 potentiator = Beta-Arrestin HTS for Positive Allosteric Modulators of the Human D2 Dopamine Receptor: Potentiators. D(2) dopamine receptor (Homo sapiens), P14416. DiscoveRx D2 beta-arrestin cells, luminescence, 90 min; 100% = 57 uM dopamine signal. potentiation, % (test concentration not listed). 360,000 compounds, 0.23% hits; active = potentiation of 50% or more; inconclusive = 30% to 50%; inactive = 30% or less;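 note: compound concentration not given in the record; tested on top of an EC20 dose of dopamine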
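PathHunter beta-arrestin assay in DiscoveRx D2 cells. Compounds were added with an EC20 of dopamine (50 nM final) for 90 min at 37 deg C. Luminescence was read 1 h after detection reagent, with 57 uM dopamine as the EC100 control.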
CtBP-E1A blk = qHTS Assay for Inhibitors of the CtBP/E1A Interaction; activity change, % (test concentration not listed); 340,000 compounds, 0.49% hits; AlphaScreen GST-E1A/His-CtBP binding, 1536-well; active compounds read low; control for the full effect not named in the record; in the data active means activity change below about -65%; inconclusive means about -30% to -65%; inactive means above about -30%; note: % is set by controls: 0 for no effect and ±100 for the full control effect
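GST-E1A and His-tagged CtBP (125 nM each as 5X stock) were preincubated with pin-transferred compound for 2 h at 37 °C in the dark, then glutathione donor and nickel acceptor beads were added for 1 h before AlphaScreen reading.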
Six1-Eya2 inh = qHTS Assay for Inhibitors of the Six1/Eya2 Interaction; AlphaScreen GST-Six1/His-Eya2 binding, biochemical; active compounds read low; control for the full effect not named in the record; activity change, % (concentration not given with the values); 360,000 compounds, 0.56% hits; in the data active = activity change below about -65%; inconclusive = about -30% to -65%; inactive = above about -30%; note: % is set by controls: 0 for no effect and ±100 for the full control effect
Target sequence (O00167 whole entry, looked up): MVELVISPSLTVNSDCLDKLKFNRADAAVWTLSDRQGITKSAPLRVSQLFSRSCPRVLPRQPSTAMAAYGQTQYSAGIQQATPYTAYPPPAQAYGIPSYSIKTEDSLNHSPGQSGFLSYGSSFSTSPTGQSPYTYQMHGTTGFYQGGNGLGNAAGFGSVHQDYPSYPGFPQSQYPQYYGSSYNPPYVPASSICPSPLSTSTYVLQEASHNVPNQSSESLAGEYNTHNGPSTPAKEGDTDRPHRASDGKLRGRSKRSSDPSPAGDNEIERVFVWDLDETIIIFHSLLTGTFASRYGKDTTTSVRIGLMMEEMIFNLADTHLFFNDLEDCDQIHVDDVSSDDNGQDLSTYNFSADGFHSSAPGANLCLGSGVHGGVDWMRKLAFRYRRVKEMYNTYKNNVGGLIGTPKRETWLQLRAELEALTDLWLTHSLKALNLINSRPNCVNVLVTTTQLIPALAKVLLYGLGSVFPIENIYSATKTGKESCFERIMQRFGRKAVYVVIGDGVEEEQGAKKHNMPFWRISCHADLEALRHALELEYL
Target sequence (Q15475 whole entry, looked up): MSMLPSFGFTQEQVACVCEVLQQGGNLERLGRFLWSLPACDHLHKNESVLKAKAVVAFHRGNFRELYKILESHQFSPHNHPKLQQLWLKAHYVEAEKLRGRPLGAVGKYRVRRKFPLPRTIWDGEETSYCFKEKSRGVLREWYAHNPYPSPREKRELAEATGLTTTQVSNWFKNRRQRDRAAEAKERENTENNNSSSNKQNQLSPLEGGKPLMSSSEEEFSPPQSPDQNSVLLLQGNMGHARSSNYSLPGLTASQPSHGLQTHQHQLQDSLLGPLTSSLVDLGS
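Six1/Eya2 binding was read as AlphaScreen signal after compounds were pinned into GST-Six1 plus His-tagged Eya2 (5X stock 250/500 nM) in pH 8.0 Tris/NaCl/TCEP buffer, beads added, then incubated 1 h, 37 C, dark.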
gsp ag = qHTS for Agonist of gsp, the Etiologic Mutation Responsible for Fibrous Dysplasia/McCune-Albright Syndrome: qHTS; gsp mutant cells, cAMP HTRF, 30 min; control for the full effect not named in the record; Potency, µM (highest dose often 76.9 µM), without a hit: at the top dose activation (cAMP increase), most hits filed as activators; 340,000 compounds, 0.13% hits; active = well fitted activation curve with a large enough effect; inconclusive = small, poorly fitted or top-dose-only effect, or another doubt; inactive = no such curve, though single readings can be large or run the other way; cell line not stated here;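 note: phosphodiesterase inhibitor Ro 20-1724 added with compounds to block cAMP breakdown; potency is the fitted concentration of half-maximal effect; nearly all actives have a fitted effect of over 60% in size; about a fifth of the inactives were tested at one dose only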
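Cells stably selected in G418 were plated at 2000/well, grown 16-24 hr, then given compounds in DMSO with the PDE inhibitor […] (300 uM solution added) for 30 min at 37C; cAMP was read by HTRF.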
gsp antag = qHTS for Antagonists of gsp, the Etiologic Mutation Responsible for Fibrous Dysplasia/McCune-Albright Syndrome: qHTS | gsp-mutant cells, cAMP HTRF, 30 min; control for the full effect not named in the record | Potency, µM (titrated, usually from 76.9 µM), inactives show top-dose activity change, negative = inhibition, actives largely listed as inhibitors | 340,000 compounds, 0.4% hits | AID 624288, 2012; active = falling curve of any shape with a large fitted effect; inconclusive = falling curve, mostly with a smaller effect; inactive = flat or rising curve; cell line not stated here;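 note: intracellular cAMP measured with PDE inhibitor Ro 20-1724 present during compound exposure; potency is the fitted concentration of half-maximal effect; % is set by controls: 0 for no effect and ±100 for the full control effect; nearly all actives have a fitted effect of over 65% in size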
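Measurement of cellular cAMP by homogeneous time-resolved fluorescence following a 30 min compound exposure at 37C. The PDE inhibitor […] was present throughout; the assay buffer was DPBS with 0.05% BSA and 0.005% Tween 20.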
An asterisk follows results filed as active; ? = inconclusive; / = no result given; [ ] = another dose, or the depositor's remark.

CtBP-E1A blk	gsp antag	gsp ag	D2 potentiator	Six1-Eya2 inh	D2 ag	compound
-5	9%	-4%[15.4 µM]	9	7	-2.1	COc1cc2c(cc1N/C=C(\C#N)c1nc(-c3ccccc3)cs1)oc1ccccc12
7	4%	10%	-3	7	-4.6	Cc1ccc2c(cnn2C(=O)CCC(=O)N2CCCCC2)c1
-1	8%	20%	-2	5	0.1	CC1CN(C2CCN(S(=O)(=O)c3ccccc3)CC2)CC(C)O1 (stereo not given)
4	-28%	-37%	-34	2	-4.1	CC(C)(C)C1CCc2onc(C(=O)NCc3ccc(F)cc3)c2C1 (stereo not given)
-20	-14%	-53%[inhibitor]	-4	-17	-3.5	O=C(O)CNc1nc(-c2ccccc2)c2cc([N+](=O)[O-])ccc2n1
/	-13%	-26%	-4	-12	-6.1	COCCCNC(=O)c1cc(Nc2ccc(OC)cc2OC)nc2ccccc12
1	/	/	-4	16	-3.5	CC1(C(=O)NS(=O)(=O)Cc2ccccc2)CCN1C(=O)Cc1ccccc1Cl (stereo not given)
-4	-12%	26%	-4	-3	1.5	CCOc1ccc(CCNC(=O)COC(=O)c2c(C)nn(-c3ccccc3)c2C)cc1OCC
1	-5%	-39%	-9	8	-1.6	CCCCCCCC(=O)NC(Nc1ccccc1OC)C(Cl)(Cl)Cl (stereo not given)
0	17%	-12%	-6	-8	0.7	CCOC(=O)C(NC(C)=O)(NS(=O)(=O)c1ccccc1)C(F)(F)F (stereo not given)
-20	-1%	/	-41	4	-1.0	CCCCCCNC(=O)c1ccc(Br)o1
-21	6%	-7%	-11	-7	-2.0	Cc1cc(Cl)ccc1NC(=O)CN1CCCC1
3	3%	-18%	1	2	2.2	O=C(c1cc(S(=O)(=O)N2CCCC2)c(Cl)cc1Cl)N1CCCC1
-2	19%	-14%	-23	1	-0.6	O=C(c1ccc(CS(=O)c2ccccc2Cl)o1)N1CCN(c2ccccc2)CC1 (stereo not given)
-22	-13%	3%	5	-22	2.6	Cc1ccc(Sc2ncccc2[N+](=O)[O-])cc1
12	18%	15%	-15	5	-1.7	O=C(N=C1SC2CS(=O)(=O)CC2N1c1ccc(OC(F)(F)F)cc1)C1CC1 (stereo not given)
5	-10%	-36%[inhibitor]	-1	1	-1.1	O=C(CCSc1ccccc1)NCCSc1ccccn1
-13	5%	0%	-9	-2	-0.8	O=C(O)c1cccc(S(=O)(=O)NCC2COc3ccccc3O2)c1 (stereo not given)
-2	0%	-29%	-7	-9	-1.3	COc1ccccc1OCC(=O)Nc1ccc(S(=O)(=O)N2CCCC2)cc1
0	16%	-23%	-12	5	0.9	OCCN1CCN(CC(O)COc2ccc(-c3ccccc3)cc2)CC1 (stereo not given)
/	4%	-49%[inhibitor]	-4	-4	-4.2	CCN(CC)S(=O)(=O)c1ccc(OC(C)C)c(N)c1
12	-2%	2%	-2	6	-4.0	O=C1C(Cl)=C(NCC2CCCO2)C(=O)N1Cc1ccccc1 (stereo not given)
3	-15%	-24%	-7	0	-2.6	Cc1cccc(NC(=O)c2cc(NC(=O)C3CC=CCC3C(=O)O)ccc2N2CCOCC2)c1 (stereo not given)
9	?	-44%[inhibitor]	-4	0	-0.6	Cc1cccc(-c2noc(CCC(=O)Nc3ccc(C(N)=O)cc3)n2)c1
3	8%	16%	-22	3	-1.9	Cc1ccc(NC(=O)CSc2n[nH]c(=O)n2C2CC2)cc1S(=O)(=O)N1CCOCC1
6	4%	-12%	1	4	0.3	O=C1C2CCCN2C(c2ccccc2)N1c1ccc(F)cc1 (stereo not given)
-6	10%	19%	-7	-8	0.8	Nc1nc(-c2ccc3c(c2)CCC(=O)N3)cs1
1	-2%	-8%[15.4 µM]	-3	0	5.6	NS(=O)(=O)c1ccc(NN=C2CCN(Cc3ccccc3)CC2)c([N+](=O)[O-])c1
0	-23%	?	-4	0	-2.0	c1ccc(Nc2ccnc(Nc3ccccc3)n2)cc1
5	2%	-5%	17	22	5.3	CCN(CC)c1ccc2cc(-c3nc4ccccc4[nH]3)c(=O)oc2c1

Two records drawn at random from those above:
CtBP-E1A blk	gsp antag	gsp ag	D2 potentiator	Six1-Eya2 inh	D2 ag	compound
12	18%	15%	-15	5	-1.7	O=C(N=C1SC2CS(=O)(=O)CC2N1c1ccc(OC(F)(F)F)cc1)C1CC1 (stereo not given)
-20	-14%	-53%[inhibitor]	-4	-17	-3.5	O=C(O)CNc1nc(-c2ccccc2)c2cc([N+](=O)[O-])ccc2n1

The list continues:
CtBP-E1A blk	gsp antag	gsp ag	D2 potentiator	Six1-Eya2 inh	D2 ag	compound
-3	3%	3%	-2	-4	-4.1	O=C(c1ccco1)N1CCN(S(=O)(=O)c2ccc3c(c2)OCCO3)CC1
0	/	3%[15.4 µM]	-18	-1	1.9	O=C(Nc1nnc(C2CC2)s1)C1COc2ccccc2O1 (stereo not given)
2	-4%	-27%	-5	3	1.1	O=[N+]([O-])c1cc(-c2cccnc2)n[nH]1
/	2%	-9%	-5	-6	3.6	OCCN(Cc1ccccc1)CC(O)COc1ccc2c(c1)OCO2 (stereo not given)
0	-13%	-21%	-4	0	10	CC(C)(C)Cc1nnc(NC(=O)CN2C(=O)c3ccccc3C2=O)s1
1	-6%	-3%[15.4 µM]	4	3	-4.2	O=C(COC(=O)c1n[nH]c2ccccc12)c1cc(F)ccc1F
?	6%	-56%[inhibitor]	-40	?	-7.3	CN(C)CCCN(C(=O)c1ccc2ccccc2c1)c1nc2cc3c(cc2s1)OCO3
3	-1%	4%	-3	-4	1.2	CCOC(=O)c1nc(-c2ccccc2)oc1N1CCOCC1
-8	10%	-51%[inhibitor]	-3	-4	-1.2	O=c1oc2ccccc2c2c1ncn2-c1ccccc1
9	6%	16%	2	1	-2.9	O=P1(c2ccccc2)C=Cn2c1cc1c2CCCC1 (stereo not given)
4	0%	0%	5	0	-1.8	O=C(NCCC1=CCCCC1)c1ccc(F)c(S(=O)(=O)N2CCOCC2)c1
-27	/	/	5	0	11	COc1cc(CNc2ncnc3c2ncn3[C@H]2CN(Cc3ccc(-c4ccccc4)cc3)C[C@@H](CO)O2)cc(OC)c1OC
3	-18%	-4%[15.4 µM]	-11	-4	-6.0	CC12CC3(C)CC(C)(C1)CC(C(=O)NCc1cccnc1)(C2)C3
-16	/	-3%[15.4 µM]	7	-1	0.8	CCOc1nc2ccccc2cc1C=O
4	12%	/	-10	1	0.8	CC(C)CCCN1C(N(C)C)=NC[C@@H]1Cc1ccccc1
-7	-2%	11%	-6	-6	-9.4	COc1ccc(-c2noc(CN3CCN(C(=O)c4cccs4)CC3)n2)c(OC)c1OC
0	0%	-14%	-18	-1	-7.0	CC(=O)c1c(C)[nH]c(C(=O)N2CCc3ccccc32)c1C
-11	-18%	6%[15.4 µM]	-6	-6	-1.9	Cc1onc(C(=O)Nc2c(C)n(C)n(-c3ccccc3)c2=O)c1[N+](=O)[O-]
8	-11%	1%	1	-8	-0.3	CN(CC(=O)NCCc1ccc(S(N)(=O)=O)cc1)S(=O)(=O)/C=C/c1ccccc1
0	-6%	-18%	3	-18	2.3	O=C(CCCN1C(=O)/C(=C/c2ccccc2Cl)SC1=S)NNC(=O)c1ccccc1
1	22%	-11%	-12	4	-3.6	O=C(COC(=O)c1ccc2c(c1)OCO2)NCc1ccc(Cl)cc1
10	-7%	21%	-18	2	1.4	Cc1ccccc1NS(=O)(=O)c1cc(C(=O)NCCC2=CCCCC2)ccc1C
-1	/	15%	/	-4	5.7	CC(C)CC1C(=O)N(Cc2cn(CCC3OCCCO3)nn2)CCS(=O)(=O)N1Cc1ccc(-c2cccc(CO)c2)cc1 (stereo not given)
7	-5%	-26%	-4	1	-4.6	CC(C)N(C(=O)Cn1c(Cl)nc2ccccc21)C(C)C
-86*	9%	-10%[15.4 µM]	-16	-82*	?	Oc1ccccc1/C=N/NC(=S)NC1CC2C=CC1C2 (stereo not given)
2	12%	-15%[15.4 µM]	-9	9	-6.4	CC(C)c1ccc(-c2cc(C(=O)NN3CCN(C)CC3)c3ccccc3n2)cc1
-2	-25%	32%	-14	8	-3.2	COC(=O)c1c(-c2ccc(F)cc2)csc1NC(=O)c1ccco1
7	14%	2%	-21	-8	-4.3	C=CS(=O)(=O)c1c2cc(OC)ccc2nc2ccc(OC)cc12
13	-7%	24%	-3	-7	-2.6	Cn1c(SCC(=O)NC(=O)Nc2ccccc2)nnc1-c1ccncc1
2	11%	-36%[inhibitor]	-11	0	-2.3	NCCNc1ccc([N+](=O)[O-])cc1
10	?	-14%	-14	-7	-6.7	CCc1cccc2c(C(=O)CN3C(=O)C(=O)N(C4CCCC4)C3=O)c[nH]c12
-1	/	/	-11	5	-6.8	COc1ccc(C(=O)N2CCCC(C)(C(=O)NS(=O)(=O)C3CC3)C2)cc1 (stereo not given)
7	10%	-7%	-10	18	-0.8	CCCCN(C(=O)CSc1nnc(-c2ccccc2)n1C)c1c(N)n(Cc2ccccc2)c(=O)[nH]c1=O
8	5%	5%	-1	4	-0.1	COCCC(=O)N1CCC(Oc2ccc(C(=O)NCCSC)cc2)CC1
-5	-17%	0%	-12	0	-4.0	COc1ccc(O)c(-c2[nH]ncc2C(=O)c2ccccc2)c1
0	-12%	-10%[15.4 µM]	-13	4	-5.9	COCC(=O)Oc1c(Sc2ccccc2[N+](=O)[O-])c(C)nn1C(C)(C)C
8	4%	-1%[15.4 µM]	0	7	-0.4	CC(=O)Nc1ccc(S(=O)(=O)N2CCNC(=O)C2)cc1
4	/	?	-2	1	-3.4	Cc1ccc([C@H]2C[C@@H](n3cc(C4CC4)nn3)[C@H](O)CN2C(=O)C2CCCCC2)cc1
4	23%	9%	-9	-6	-3.4	COc1ccc(C2=NOC(C(=O)NCc3ccco3)C2)cc1OC (stereo not given)
1	3%	9%	0	1	0.6	CCOC(=O)c1cc(S(=O)(=O)NCCc2ccc(OC)c(OC)c2)cn1C
/	4%	?	6	-2	0.7	C/C(=N\N1CCN(c2ccccc2)CC1)c1ccccc1O
-8	5%	-5%[15.4 µM]	3	-5	-3.8	Nc1ccc(-c2nc3ncccc3o2)c(Cl)c1
-5	-1%	-1%	-2	-2	-4.2	Cc1ccc(-n2c([O-])nc(-[n+]3ccccc3)c2C=O)cc1

Entries of single compounds as entered above. Order of screens: CtBP-E1A blk | gsp antag | gsp ag | D2 potentiator | Six1-Eya2 inh | D2 ag
Listed for COc1ccc(C(=O)N2CCCC(C)(C(=O)NS(=O)(=O)C3CC3)C2)cc1 (stereo not given) → -1 | / | / | -11 | 5 | -6.8
Listed for CC(=O)Nc1ccc(S(=O)(=O)N2CCNC(=O)C2)cc1 → 8 | 4% | -1%[15.4 µM] | 0 | 7 | -0.4
Listed for COCCC(=O)N1CCC(Oc2ccc(C(=O)NCCSC)cc2)CC1 → 8 | 5% | 5% | -1 | 4 | -0.1
